Rango complex inh: prevents formation of the Rango-importin beta complex | Potency, µM (doses to about 92.2 µM), inactives show at the highest dose inhibition of complex formation | AID 540263 | Q14974 | 340,000 compounds, 0.031% hits | Rango CFP/YFP FRET sensor + importin beta, 45 min; active = rising FRET ratio curve, often small or poorly fitted; inconclusive = mostly compound fluorescence or quenching in the first reads; inactive = flat curves in all reads;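 note: potency is the fitted concentration of half-maximal effect; 0% = DMSO wells and 100% = buffer wells lacking importin beta; nearly all actives have a fitted effect of over 15% in size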
Target sequence (Q14974 whole entry, looked up): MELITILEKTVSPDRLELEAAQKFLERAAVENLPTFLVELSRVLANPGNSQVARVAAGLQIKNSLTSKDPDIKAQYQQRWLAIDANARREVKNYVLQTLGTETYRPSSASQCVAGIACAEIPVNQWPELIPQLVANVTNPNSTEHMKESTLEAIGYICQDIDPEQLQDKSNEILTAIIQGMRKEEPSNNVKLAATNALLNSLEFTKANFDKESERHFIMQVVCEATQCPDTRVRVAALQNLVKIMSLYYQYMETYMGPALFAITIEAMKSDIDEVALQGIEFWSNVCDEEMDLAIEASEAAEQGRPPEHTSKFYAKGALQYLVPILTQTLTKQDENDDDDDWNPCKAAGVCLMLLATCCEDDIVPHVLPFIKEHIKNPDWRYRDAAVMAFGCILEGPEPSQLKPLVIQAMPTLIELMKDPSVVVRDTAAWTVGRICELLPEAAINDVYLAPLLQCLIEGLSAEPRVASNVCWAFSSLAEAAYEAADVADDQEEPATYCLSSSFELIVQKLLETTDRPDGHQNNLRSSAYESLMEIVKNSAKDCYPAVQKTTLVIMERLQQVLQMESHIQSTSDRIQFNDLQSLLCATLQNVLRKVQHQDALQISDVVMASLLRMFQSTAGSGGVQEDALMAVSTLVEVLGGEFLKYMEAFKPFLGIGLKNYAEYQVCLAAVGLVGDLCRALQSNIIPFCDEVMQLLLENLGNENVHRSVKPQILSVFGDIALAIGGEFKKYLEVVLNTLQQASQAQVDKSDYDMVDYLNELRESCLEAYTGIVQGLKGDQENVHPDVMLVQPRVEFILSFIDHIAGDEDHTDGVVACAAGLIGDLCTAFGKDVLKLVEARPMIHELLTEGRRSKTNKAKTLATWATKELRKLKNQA
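Inhibition scored from the CFP 486 nm/YFP 530 nm FRET ratio 45 min after adding 0.125 microM importin beta to 50 nM Rango biosensor preincubated 5 min with compound (room temperature, PBS with DTT, Tween-20, BSA). No-importin wells as positive control.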
Rango release inh: inhibitors of RanGTP-induced Rango-importin beta complex dissociation. O95149+P62826. Biochemical FRET Rango-importin beta, RanGTP-induced dissociation. Potency, µM (doses to about 46.1 µM), for inactives: at the highest dose activity change, negative = inhibition. 340,000 compounds, 0.071% hits; active means falling FRET ratio curve, often poorly fitted, with flat reads before Ran was added; inconclusive means other falling curves, or compound fluorescence or quenching; inactive means flat or rising ratio curve;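 note: potency is the fitted concentration of half-maximal effect; % of control where 0% means no effect; nearly all actives have a fitted effect of over 45% in size; -100% = wells without RanGTP and RCC1; the record marks most hits as doubtful in a second field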
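Two FRET readings bracket the reaction: one 5 min after compound meets Rango–importin beta, another 45 min after RanGTP-RCC1 (0.6 uM Ran, 0.2 uM RCC1, 2 mM GTP) is added. Only the second defines inhibition.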
GLA inh pH 4.5: blocks human alpha-galactosidase A at pH 4.5; P06280; purified enzyme, 4-MU-alpha-Gal fluorescence, pH 4.5; activity change, negative = inhibition, % at 105 µM; 230,000 tested, under 10 active; inconclusive = small, poorly fitted or top-dose-only inhibition, or a rising curve; inactive = flat fitted curve, though single readings scatter; no compound was filed as active;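 note: 0% = full activity with enzyme and -100% = basal without enzyme; dose as in the result columns while the protocol names 77 µM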
miR-21 FLuc: raises the signal of a miR-21 reporter; HeLa miR-21 FLuc reporter, luciferase, 48 h; 340,000 tested, under 10 active; AID 2288; Potency, µM (doses to about 38.3 µM), for the others: at the highest dose reporter change, positive = more light; active = well fitted rising curve with a large enough effect; inconclusive = small, poorly fitted or top-dose-only effect; inactive = no such curve, though single readings can be large or run the other way;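 note: % of control where 0% means no effect; miR-21 action dims this reporter so a rising signal means less miR-21 action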
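HeLa cells stably expressing CMV-driven firefly luciferase with a downstream miR-21 binding sequence, endogenously expressing miR-21, were treated with titrations (up to about 40uM final) for 48 hours at 37 degree Celsius. Luciferase luminescence was read after lysis.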
* hit, by the source's call; u = inconclusive; x = not tested or not shown.

Molecule	Rango complex inh	Rango release inh	miR-21 FLuc	GLA inh pH 4.5
CCCCC1CN2CCc3c([nH]c4ccccc34)C2(C)C1 (stereo not given)	0.3%	0.7%	2.2%	x
COc1ccc(N2CCN(C3CCCN(C(=O)c4ccoc4)C3)CC2)cc1 (stereo not given)	0.1%	-21.3%	-2.3%	x
Cc1cc(NC(=O)CSc2ccc(-c3cccc([N+](=O)[O-])c3)nn2)no1	5.5%	-3.7%	2.0%	-0.7
CCOCc1cc(C2NC(=O)NC(C)=C2C(=O)OCC)ccc1OC (stereo not given)	2.1%	-5.7%	-6.9%	-2.0
COc1cc2nc(N(CCN(C)C)C(=O)c3ccc(S(=O)(=O)N(C)CC4CCCO4)cc3)sc2cc1OC (stereo not given)	0.7%	-16.1%	0.5%	x
O=C(N/C(=C/C=C\c1ccccc1)C(=O)N1CCOCC1)c1ccc(Br)cc1	0.3%	-4.5%	5.9%	2.2
O=C(c1nn2c(C(F)(F)F)cc(-c3ccccc3)nc2c1Cl)N1CCN2CCCC2C1 (stereo not given)	0.4%	0.8%	3.9%	x
CSc1n[nH]c(=O)n1C1CCCCC1	1.0%	11.3%	-2.3%	-2.8
O=C(CCc1ccccc1)Nc1nc2n(n1)C(c1ccc(Cl)cc1)CC(=O)N2 (stereo not given)	-1.4%	13.9%	3.3%	-2.8
CN(c1ccccc1)S(=O)(=O)c1cc(Cl)ccc1Cl	3.9%	16.4%	2.4%	-13.3

Later entries
Molecule	Rango complex inh	Rango release inh	miR-21 FLuc	GLA inh pH 4.5
Cc1c(-c2nc(-c3cccnc3)no2)cccc1[N+](=O)[O-]	-0.2%	0.2%	-23.0%	2.1
O=C(COC(=O)[C@@H]1CCCN1S(=O)(=O)c1ccccc1F)NCc1ccc2c(c1)OCO2	0.2%	15.6%	x	x
CCOc1ccc(N2CC(C(=O)NCCc3ccc(OC)c(OC)c3)CC2=O)cc1 (stereo not given)	6.8%	u	-5.2%	1.8
COc1ccc(CNCCNC(=O)c2cccs2)c(OC)c1OC	-1.0%	18.9%	-3.0%	-15.9
CCOc1ccc(CCNC(=O)C2CC(=O)N(c3ccc4c(c3)OCCO4)C2)cc1OCC (stereo not given)	-4.3%	-0.9%	x	x
COc1cccc(C(=O)NC(=O)Nc2nc(C)cc(C(F)(F)F)n2)c1	0.4%	-13.8%	-3.2%	x
O=C(Nc1cccc(-n2cnnn2)c1)c1cccs1	u	-3.5%	4.5%	x
CCN1C(=O)[C@@H]2[C@@H](c3ccc(-c4cccc(Cl)c4)cc3)N3CCC[C@@]3(C(=O)OC)[C@@H]2C1=O	-0.1%	-14.2%	x	x
CCOC(=O)c1c(-c2ccccc2)csc1NC(=O)CSc1nc(N)cc(N)n1	-3.7%	2.2%	15.4%	-25.1
Cc1nc(-c2ccccc2)nc2sc(C(=O)c3ccc(F)cc3)c(N)c12	u	u	-3.7%	-8.3

The listing continues:
Molecule	Rango complex inh	Rango release inh	miR-21 FLuc	GLA inh pH 4.5
CCN(CC)CCNC(=S)Nc1ccc(F)cc1	-3.2%	-23.8%	-2.8%	-5.6
O=C(COC(=O)c1ccc(Cl)nc1)Nc1cccnc1Cl	2.0%	-13.4%	x	x
CCN(CC)S(=O)(=O)c1ccc(NC(=O)Cc2cccs2)cc1	-2.9%	-3.9%	-11.6%	-9.5
CC(C)NC(=S)N1CCN(C(c2ccccc2)c2ccccc2)CC1	-1.8%	6.5%	-5.9%	-17.2
CNc1snc(C)c1C(=O)OCC(=O)c1ccc(OC)c(F)c1	-1.0%	0.5%	x	x
Cc1ccc(C)c(N2CCN(C(=O)CCc3nc(-c4ccc(F)cc4)no3)CC2)c1	0.2%	-0.5%	x	x
CCOC(=O)Cc1csc(NC(=O)C(C)Oc2ccc3c(C)cc(=O)oc3c2)n1 (stereo not given)	-3.0%	25.8%	0.0%	4.1
CN(C)S(=O)(=O)c1ccc(C(=O)NCC(C)(C)N2CCOCC2)cc1	-2.2%	-10.2%	-1.0%	6.6
O=C(CCc1ccccc1)Nc1nncs1	0.6%	-4.8%	-9.8%	8.7
Cc1cccc(Cl)c1OCCCN1CCOCC1	-0.4%	-0.8%	-11.8%	x

The list continues:
Molecule	Rango complex inh	Rango release inh	miR-21 FLuc	GLA inh pH 4.5
C=CCn1c(-c2csc3ccccc23)n[nH]c1=S	-1.9%	-1.5%	-3.2%	0.1
CCOC(=O)c1cnc2sc3c(n2c1=O)CCCC3	u	u	-28.0%	u
CC1(C)Cc2ccccc2C(N/N=C/c2cccc(F)c2)=N1	-1.3%	-4.0%	-2.0%	-1.7
CCCn1c(=O)c(C(=O)NNS(=O)(=O)c2ccc(C)cc2)c(O)c2ccccc21	0.1%	-0.4%	-7.3%	-3.9
CCCN(CC(=O)Nc1ccccc1C)C(=O)c1sc2ccccc2c1Cl	-2.2%	8.4%	x	x
O=C(NCc1ccc(F)cc1)c1c2c(nc3ccccc13)CCN(Cc1ccccc1)C2	-2.8%	-4.6%	-0.6%	-1.7
COc1ccc(C(=O)CSc2nnc(C(CO)NC(=O)c3ccc(OC)cc3)n2C)cc1 (stereo not given)	0.0%	-7.5%	-4.9%	-3.5
S=C(CN1CCCC1=S)N1CCOCC1	-1.4%	0.2%	x	x
O=C(COC(=O)CNC(=O)c1cccc([N+](=O)[O-])c1)Nc1nc2ccccc2s1	0.2%	-9.3%	-16.1%	-0.8
Cc1ccc(NC2CCCN(C(=O)c3ccc4nccnc4c3)C2)cc1C (stereo not given)	-0.7%	0.7%	-1.0%	x

The list continues:
Molecule	Rango complex inh	Rango release inh	miR-21 FLuc	GLA inh pH 4.5
CCCn1c(NCc2ccco2)nc2ccccc21	1.8%	-13.6%	-10.9%	-1.2
COc1ccc(Cl)cc1NC(=S)N1CC(C)OC(C)C1 (stereo not given)	3.1%	8.5%	0.9%	x
CCc1ccc(NC(=O)C2CCCN(S(=O)(=O)c3cccnc3)C2)cc1 (stereo not given)	-1.0%	8.5%	19.3%	x
CCC1COCCS(=O)(=O)N1Cc1ccc(Cl)cc1 (stereo not given)	-2.8%	-11.0%	2.2%	x
COc1ccc(N(Cc2ccccc2)S(=O)(=O)c2cccc(C(=O)Nc3ccccn3)c2)cc1	-0.6%	-10.0%	x	x
Cc1ccc(CN2CCN(CCCn3cnc4c(OCc5ccccc5)ncnc43)CC2)cc1	-1.9%	-12.3%	x	x
CN(CC(=O)Nc1ccc(Cl)c(Cl)c1)C(=O)CN1C(=O)NC2(CCCC2)C1=O	u	5.7%	x	x
O=C(NCc1ccc(CNC(=O)c2ccco2)cc1)c1ccco1	3.6%	22.6%	-12.6%	x
C=CC[C@@H](CC(=O)NCCO)C(=O)N[C@H](COC(=O)[C@H](CC=C)CC(=O)OC(C)(C)C)Cc1c[nH]c2ccccc12	0.9%	0.3%	x	x
C=CCOc1cccc(C(=O)N(C)C2CCCN(Cc3ccccc3F)C2)c1 (stereo not given)	0.1%	5.3%	x	x

Further entries:
Molecule	Rango complex inh	Rango release inh	miR-21 FLuc	GLA inh pH 4.5
COC(=O)CSc1nnc(COc2ccc3ccccc3c2)o1	-3.3%	0.0%	-0.6%	x
O=C1c2ccccc2-c2nc3ccccc3nc21	0.3%	-10.3%	-35.5%	4.0
O=C(NC(=S)N1CCN(c2ccc(Cl)cc2[N+](=O)[O-])CC1)c1ccco1	-0.5%	-0.4%	-14.1%	6.2
Cc1c(C(=O)C(=O)NCCCn2ccnc2)c2ccccc2n1C	-2.6%	4.4%	-2.0%	0.1
COc1ccc(OC)c(N(C(=O)c2ccco2)C(C(=O)NC2CCCC2)c2ccc(N3CCOCC3)cc2)c1 (stereo not given)	-3.5%	10.1%	-5.9%	x
Cn1c(-c2nonc2NC(=O)c2ccc(C(C)(C)C)cc2)nc2ccccc21	x	x	-0.3%	-7.5
O=[N+]([O-])c1ccc2c(c1)C(N1CCOCC1)/C(=C/COc1ccc(F)cc1)O2 (stereo not given)	-1.3%	14.2%	1.1%	-5.4
Cc1ccc(C(=O)c2c3ccc([N+](=O)[O-])cc3[n+]([O-])n2CCCN)cc1	-0.7%	-13.4%	x	x
O=C(C1CCN(CCc2ccccc2)CC1)N1CCOCC1	-0.7%	-10.4%	x	x
Cc1cccc(NC(=S)NCc2ccc3[nH]c4c(c3c2)CCCC4)c1	u	-5.9%	9.8%	-1.2

Continuation.
Molecule	Rango complex inh	Rango release inh	miR-21 FLuc	GLA inh pH 4.5
O=C(Nc1nccs1)[C@@H]1CCCN1C(=O)c1cccs1	1.9%	0.2%	-0.4%	2.3
COc1ccc(OCC(=O)NNC(=O)c2cccc(C)c2)cc1	-3.7%	-1.8%	-1.8%	0.7
N/C(=N\OS(=O)(=O)c1ccccc1)c1cccnc1	-1.1%	-0.1%	2.5%	-4.9
CCc1ccccc1NC(=O)CSc1nc2n[nH]c(C)c2c(=N)n1-c1cccc(OC)c1	-0.2%	-6.2%	15.3%	-0.3
COc1cccc2cc(C(=O)Nc3cc(Cl)ccc3N3CCOCC3)c(=O)oc12	2.7%	16.3%	-0.4%	x
Cc1nn(-c2ccccc2)c(N2CCCC2)c1/C=N/NC(=S)Nc1ccccc1C(F)(F)F	-1.1%	8.8%	9.7%	-1.5
O=C(c1ccccc1-n1cccn1)N1CCc2c([nH]c3ccccc23)C1c1ccccn1 (stereo not given)	-2.6%	-12.3%	-17.5%	-0.3
COc1ccc(CNS(=O)(=O)c2ccc(N3CCCC3)cc2Br)cc1	-0.4%	-16.4%	x	x
C=CCOc1cccc(CNCc2cccnc2)c1	0.8%	6.9%	2.6%	x
COc1ccc(C(=O)N2CCSCC2)cc1OC1CCN(C(C)=O)CC1	1.3%	0.8%	-0.3%	x

(continued)
Molecule	Rango complex inh	Rango release inh	miR-21 FLuc	GLA inh pH 4.5
O=C(CSc1nnc(NC(=O)c2ccc(S(=O)(=O)N3CCOCC3)cc2)s1)Nc1ccccc1C(F)(F)F	-3.8%	13.0%	0.0%	-1.2
O=C(Nc1ccc2c(c1)OCCO2)c1cc2sccc2n1Cc1ccc(F)cc1	4.2%	-4.5%	-1.3%	-23.4
CCN(C(=O)COC(=O)c1ccc(O)cc1)c1cccc2ccccc12	-3.3%	-7.5%	x	x
CCn1c(COc2ccccc2C)nc2ccccc21	1.6%	1.8%	-71.2%	-2.1
CC(C)NC(=O)N1CCCN(c2nc3ccc(Cl)cc3s2)CC1	5.2%	9.4%	-2.0%	-4.2
O=C(Nn1c(-c2ccc(Br)cc2)nc2ccccc2c1=O)c1ccncc1	2.8%	-11.8%	-9.5%	-1.3
COc1ccccc1C(=O)Nc1ccnn1C1CCN(Cc2ccn[nH]2)CC1	3.8%	-13.3%	-5.2%	x
O=C(Nc1c2c(nn1-c1cccc(Cl)c1)CS(=O)(=O)C2)c1ccc2c(c1)OCO2	-0.8%	8.9%	-1.6%	x
Cc1nn(-c2ccc([N+](=O)[O-])cc2)c2c1C(c1ccc(OC(F)F)cc1)N1C(=N2)C(=O)Nc2ccccc21 (stereo not given)	u	-20.4%	-1.5%	-3.6
CC(=O)Nc1ccc(NC(=O)CSc2nnc(COc3ccccc3C)n2CC2CCCO2)cc1 (stereo not given)	-1.2%	9.1%	13.6%	1.3

The results go on:
Molecule	Rango complex inh	Rango release inh	miR-21 FLuc	GLA inh pH 4.5
COc1ccc(/C=C(/C#N)C(=O)Nc2cccnc2)cc1OC	-6.0%	6.8%	2.7%	-5.7
COC(=O)c1ccccc1NC(=O)C1CCC(=O)N1S(=O)(=O)c1ccc(C)cc1 (stereo not given)	-2.7%	1.0%	-0.3%	-4.0
COc1ccc(S(=O)(=O)NCc2ccc(C(=O)N3CCN(Cc4ccccc4)CC3)cc2)cc1	-0.7%	-3.8%	13.8%	x
O=C(CSc1ccccc1)N1CCN(c2ccc(F)cc2)CC1	3.5%	2.1%	x	x
COc1ccccc1C(=O)NC(=O)CSc1nnc(SC)s1	4.4%	-15.5%	x	x
O=[N+]([O-])c1cc(S(=O)(=O)N2CCCC2)ccc1N/N=C/c1cccnc1	-3.5%	1.0%	-8.7%	-3.2

Source: PubChem BioAssay

Not all compounds are listed; rates above refer to the full screens.
